# Screening data deposited in PubChem by Southern Research Institute.
# Mtb growth: Mycobacterium tuberculosis H37Rv growth inhibition, cell based, confirmatory dose response (AID 1949); most inactive calls were filed without a number and no value below 0 was filed; inhibition, % at 10 µg/mL, or IC50 in µg/mL where a hit was titrated; hit rate 1.6% among 100,000;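 active = confirmed in a dose series; inconclusive = about 50% or more but not retested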;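 also: bacteria grown 7 days with compound before Alamar blue readout; 0% = untreated bacteria and 100% = reference antibiotic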
# * marks the source's active call; other numbers are inactive results; i = inactive; ? = inconclusive. Not all compounds are listed; count on the stated rates, not on these rows.
Molecule | Mtb growth
COC(=O)C1=C(C)NC(=S)NC1c1cc(Br)ccc1OC (stereo not given) | 4.9%
CCOC(=O)C1=CN(C(C)C)C=C(C(=O)OCC)C1c1ccccc1F | 5.7%
O=C(NC(=S)Nc1ccccc1F)c1ccccc1F | i
Cc1ccc(-c2cc(C(F)(F)F)c3nc(OCCC#N)oc3n2)o1 | 3.7%
CCn1nc(C)c(NC(=O)Nc2ccc(OC)cc2OC)c1C | i
Cc1ccc(N(CC(O)CN(Cc2ccccc2)Cc2ccccc2)S(=O)(=O)c2ccc([N+](=O)[O-])cc2)cc1 (stereo not given) | 9.1%
Nn1c(SCc2nc3ccccc3[nH]2)nnc1-c1cccnc1 | i
O=C(O)CC(CC(=O)Nc1ccc(C(=O)O)cc1)c1ccccc1 (stereo not given) | i
C=CCN1C(=O)N(c2ccc(Cl)cc2)C(=O)C1CC(=O)Nc1ccc(C(=O)OCC)cc1 (stereo not given) | 22.0%
O=C(COc1ccc(Br)cc1)Nc1cc2nn(-c3ccccc3)nc2cc1Cl | i
CCCCNCCOCCOc1cccc(CC)c1 | i
Cc1ccc(C(=O)NC(=S)Nc2cccc(Cl)c2N2CCOCC2)c(Cl)c1 | 3.8%
O=C(NC1CCCCC1NC(=O)c1cccs1)c1cccs1 (stereo not given) | 1.9%
CCC(C(=O)Nc1ccc(S(=O)(=O)N2CCCC2)cc1)c1ccccc1 (stereo not given) | i
O=C(O)c1cccc(COc2cc(Cl)ccc2Cl)c1 | i
CCOc1ccccc1N1CCN(C(=O)Nc2cccc(Cl)c2)CC1 | 2.0%
CCOC(=O)c1ccccc1NC(=O)C1CC(=O)N(c2ccccc2)C1 (stereo not given) | i
CCc1cc(=O)oc2c(C)c(OCC(=O)c3cccc(OC)c3)ccc12 | 5.3%
CC(=O)Nc1ccc2nc(SC(C)C(=O)Nc3c(C)cc(C)cc3C)sc2c1 (stereo not given) | i
COc1cc2c(cc1NC(=S)NCc1ccc(Cl)cc1)oc1ccccc12 | i
CCOc1cc(S(=O)(=O)NCc2ccccn2)ccc1Cl | i
COc1cccc(C(=O)CC2(O)C(=O)N(CCc3ccccc3)c3ccccc32)c1 (stereo not given) | i
CCc1cc2c(NCC3CCCO3)ncnc2s1 (stereo not given) | i
CCCCC(=O)Nc1ccc(C(=O)NNC(=O)c2ccc(Cl)cc2Cl)cc1 | i
CC(C)(C)OC(=O)N1CC2Cc3[nH]c(=O)ccc3C(C2)C1 (stereo not given) | i
CC(Nc1nc(N2CCN(S(C)(=O)=O)CC2)nc2ccccc12)c1ccccc1 (stereo not given) | i
COc1ccc(CCNC(=S)N2CCN(C/C=C/c3ccccc3)CC2)cc1OC | 1.73µg/mL*
Cn1c(COc2ccc(Cl)cc2Cl)nnc1SCC(N)=O | i
COc1ccccc1C(=O)Nc1ccc(S(=O)(=O)Nc2cc(C)cc(C)c2)cc1 | i
Cc1ccc(C(=O)Nc2nc(-c3ccccc3)c(C)s2)s1 | 47.9%
O=C(Cc1cccs1)NNC(=S)Nc1ccc(Br)cc1Cl | i
CCN(CC)C(=O)Cn1cc(C(=O)c2ccccc2)c2ccccc21 | 2.5%
Cc1ccc(C(=O)Nc2nc3ccc(S(C)(=O)=O)cc3s2)o1 | i
Cc1occc1C(=O)NNC(=O)Nc1ccc(F)cc1F | i
COc1ccc2c(Cl)c(C(=O)NCc3ccccn3)sc2c1 | i
COC(=O)c1ccc(Cn2cnc3sc(C)c(-c4ccc(F)cc4)c3c2=O)cc1 | i
CCc1cccc(C)c1NC(=O)CN(c1cccc(Br)c1)S(C)(=O)=O | i
CC(C)C(=O)N1N=C(c2ccccc2)CC1(O)C(F)(F)F (stereo not given) | 1.5%
O=C(CN(Cc1ccc(Cl)cc1)S(=O)(=O)c1ccc(Cl)cc1)N1CCCC1 | 9.8%
O=c1c2ccccc2nc(/C=C/c2ccccc2)n1-c1ccccc1 | i
CC12CN(NC(=O)c3ccccc3F)C3(C#N)CC1CCC23C (stereo not given) | i
CCN(CC)c1ccc(NC(=O)c2cc(OC)cc(OC)c2)c(C)c1 | 1.1%
Cc1cccc(OCCn2cnc3cc(C)c(C)cc32)c1 | 4.52µg/mL*
COc1ccc(NC(=S)NNC(=O)c2cc3c(s2)CCCCC3)cc1OC | i
CC1CCN(C(=O)CN(c2ccc(Cl)c(C(F)(F)F)c2)S(C)(=O)=O)CC1 | i
Cc1ccc(Cl)cc1NC(=O)C12CCC(C)(C(=O)C1)C2(C)C (stereo not given) | 1.2%
O=C1CC(Cc2ccc(Cl)cc2)C(=O)N1c1nc2ccccc2s1 (stereo not given) | i
COc1ccc(C(=O)Nc2ccc3oc(-c4cccc(Cl)c4)nc3c2)cc1 | i
COc1cc(NC(=S)NC(=O)C(C)(C)C)ccc1-c1cc2ccccc2oc1=O | i
Cc1cccc(C(C)C)c1NC(=O)C(Sc1ccccc1)c1ccccc1 (stereo not given) | i
COc1ccc(S(=O)(=O)N2CCN(C(=O)CCC3CCCC3)CC2)cc1 | 1.6%
COc1ccc(S(=O)(=O)n2nc(C)cc2C)cc1N(C)S(=O)(=O)c1ccc(Cl)cc1 | i
COCCN1C(=O)C(O)=C(C(=O)c2ccco2)C1c1cccc(Br)c1 (stereo not given) | 10.5%
C=CCc1cc2c(C)cc(=O)oc2c(C)c1O | i
COc1ccc(-c2csc(NC(=O)CCn3cnc4ccccc4c3=O)n2)cc1OC | i
O=C(O)CCn1c(C2CCCCC2)nc2ccccc21 | i

# (listing goes on)
Molecule | Mtb growth
Cc1ccc2c(c1)c1c3n2CCN(CC#N)C3CCC1 (stereo not given) | i
CCCC(=O)Nc1cccc(NC(=S)NC(=O)c2cccc(C)c2)c1 | i
COc1cccc(N2C(=O)N(c3ccccc3)C3CS(=O)(=O)CC32)c1 (stereo not given) | i
O=C(Nc1ccc2c(c1)Cc1cc(NC(=O)c3ccco3)ccc1-2)c1ccco1 | i
O=C(CSc1nc2ccccc2[nH]1)N1CCN(c2ccc(F)cc2)CC1 | 29.2%
CCOc1ccccc1OCCCCOc1ccc(Br)cc1 | 0.6%
COC(=O)c1cc(OC)c(OC)cc1NC(=O)Cn1c([N+](=O)[O-])cnc1C | i
Cc1c(C(=O)NC(=S)Nc2ccc(I)cn2)cccc1[N+](=O)[O-] | i
CC(C)NC(=O)Cn1cc(C#N)c2cc(Br)ccc21 | 0.7%
C=CCn1c(SCC(=O)c2ccc(OC)cc2)nnc1-c1cccs1 | i
c1nc2ccc(Oc3ccc4nc[nH]c4c3)cc2[nH]1 | i
C=CCNC(=O)C1CC(=O)N(c2ccc(OCC(=O)Nc3ccc(CC)cc3)cc2)C1 (stereo not given) | i
O=C(CSC1CC(=O)N(c2cccc(Cl)c2)C1=O)Nc1ccc(F)cc1 (stereo not given) | i
COc1ccc(C(=O)C(C)Oc2ccccc2Cl)cc1 (stereo not given) | 2.9%
CC(C)(C)c1ccc(C(=O)NC(Cc2ccccc2)C(=O)O)cc1 (stereo not given) | i
CCOc1cc(C(=O)Nc2cc(C)c(I)cc2C)cc(OCC)c1OCC | i
COc1c(C)cccc1C(=O)NC(=S)Nc1ccccc1N1CCCC1 | ?
CCCS(=O)(=O)c1ccc(COC(=O)CN2C(=O)c3cccc([N+](=O)[O-])c3C2=O)cc1 | 0.5%
Cc1ccc(Cl)cc1NC(=O)CC1CCCCC1 | i
CCOc1ccc(NC(=S)Nc2sc(C)c(CC)c2C(=O)OC)c([N+](=O)[O-])c1 | i
C=CCn1c(CC(C)(C)C)nc2ccccc21 | 3.1%
O=C(C(c1ccccc1)c1ccccc1)N1CCOCC1 | i
Cc1cc(OCC(=O)Nc2ccc(N3CCOCC3)cc2)ccc1Br | 2.2%
COc1ccc(NC(=O)c2cc(I)ccc2NC(=O)c2cccc(C)c2)cc1 | 12.3%

# 6 compounds picked at random from those above, as already listed:
Molecule | Mtb growth
Cc1ccc(Cl)cc1NC(=O)CC1CCCCC1 | i
Cc1cc(OCC(=O)Nc2ccc(N3CCOCC3)cc2)ccc1Br | 2.2%
COc1ccc(NC(=O)c2cc(I)ccc2NC(=O)c2cccc(C)c2)cc1 | 12.3%
CCCS(=O)(=O)c1ccc(COC(=O)CN2C(=O)c3cccc([N+](=O)[O-])c3C2=O)cc1 | 0.5%
COc1c(C)cccc1C(=O)NC(=S)Nc1ccccc1N1CCCC1 | ?
C=CCn1c(CC(C)(C)C)nc2ccccc21 | 3.1%

# Next results:
Molecule | Mtb growth
CS(=O)(=O)N(CC(=O)Nc1ccc(Br)cc1)C1CCCCC1 | 3.3%
COc1ccc(-c2nnc(SCC(=O)c3cc(OC)ccc3OC)n2-c2ccc(Cl)cc2)cc1 | 1.5%
CCOC(=O)c1cc(NC(=O)c2ccc(Cl)cc2)c(=O)n2c1oc1ccccc12 | i
Cc1c(Cl)cccc1NC(=O)CN(c1cccc(F)c1)S(C)(=O)=O | i
CCOc1ccc(N2C(=O)CC(N3CCC(NC(=O)Nc4ccccc4)CC3)C2=O)cc1 (stereo not given) | i
NC(=O)c1c(N)sc2c1CCCCCCCCCC2 | 2.1%
O=C(NC1CCCCC1)c1ccc(NC(=O)C2COc3ccccc3O2)cc1 (stereo not given) | i
CCOc1ccc2c(c1)C(OC(C)=O)C(C)(C)C(c1ccc(F)cc1)N2 (stereo not given) | 1.9%
O=C(NCc1ccco1)C1CCN(S(=O)(=O)c2ccccc2)CC1 | 0.1%
COc1cccc(N(CC(=O)Nc2cc(C(F)(F)F)ccc2Cl)S(C)(=O)=O)c1 | i
O=S(=O)(c1ccc(Cl)cc1)N1CCCC(C(F)(F)F)C1 (stereo not given) | i
Cn1c(CNC(c2ccccc2)c2ccccc2)nc2ccccc21 | 45.4%
Cc1cccc(NC(=O)c2ccc(N(Cc3ccc(Cl)cc3)S(C)(=O)=O)cc2)c1C | i
CCOC(=O)CSc1nc(=O)cc(N)n1CCc1ccccc1 | i
O=C(Nc1ccccc1N1CCN(C(=O)c2ccc(Cl)cc2)CC1)c1cc(Cl)ccc1Cl | i
COc1c(C)cc(NS(=O)(=O)c2ccc(SC)cc2)cc1C | i
N#Cc1ccccc1NC(=S)NC(=O)c1ccc(Cl)cc1 | i
Cc1ccc(N(Cc2ccc(C(=O)NC(C)c3ccccc3)cc2)S(C)(=O)=O)cc1C (stereo not given) | i
c1ccc2c(c1)nc(-c1cscn1)n2CCCCc1nn[nH]n1 | i
COc1ccccc1Oc1ccc(S(=O)(=O)N2CCCC2)cc1 | i
CS(=O)(=O)N1CCc2cc(C(=O)O)ccc21 | i
COc1cc(NC(=O)c2ccc3c(c2)OCCO3)ccc1NC(=O)C(C)C | i
O=[N+]([O-])c1ccc(-c2noc(CSc3ccccc3)n2)cc1 | i
O=C(CSCc1ccccc1)Nc1ccc(S(=O)(=O)NCCc2ccccc2)cc1 | i
N#CC1=C(N)Oc2n[nH]c(C(F)(F)F)c2C1c1cccc(O)c1 (stereo not given) | i
O=C(NC1(C(F)(F)F)C(=O)Nc2c1c(=O)[nH]c(=O)n2-c1ccccc1)c1ccncc1 (stereo not given) | i
Cc1ccc(C(=O)Nc2c(F)cccc2F)cc1S(=O)(=O)Nc1cccc(C)c1C | i
O=C(Nc1ccc([N+](=O)[O-])cc1Cl)c1ccco1 | 2.8%
COc1cccc(S(=O)(=O)NCc2ccco2)c1 | i
O=C(c1cncc(Br)c1)N1CCN(c2nc(-c3ccccc3)cs2)CC1 | 7.8%
O=C(CC1(O)C(=O)N(CCc2ccccc2)c2ccc(Cl)cc21)c1ccncc1 (stereo not given) | 6.03µg/mL*
Cc1ccc(S(=O)(=O)Nc2cccc(C(=O)Nc3ccc(Cl)cc3)c2)cc1 | i
O=C(Nc1ccc(S(=O)(=O)N2CCOCC2)cc1)c1cccc(S(=O)(=O)N2CCCC2)c1 | i
O=C(NC(=S)Nc1ccc2ccccc2c1)c1cc(Br)ccc1Cl | i
CN(C)c1ccc(C2OC(=O)C3(CCCC3)C(=O)C2(C)C)cc1 (stereo not given) | 1.2%
COc1ccc(S(=O)(=O)NN(C)C)cc1N(C)S(=O)(=O)c1ccc(Cl)cc1 | i
COc1ccc(N2CCN(C(=O)c3cccc(OC)c3OC)CC2)cc1 | i
CC(=O)NC(Cc1ccccc1)C(=O)NC(Cc1ccccc1)C(=O)O (stereo not given) | i
Cc1cc(Cl)ccc1NC(=O)Cn1cnc2sc(C)c(-c3ccc(F)cc3)c2c1=O | ?
CN1CCc2c(c3ccccc3n2-c2ccccc2)C1 | i
O=C(Nc1ncc(Cc2ccc(Cl)cc2)s1)C1CC1 | 46.1%
O=[N+]([O-])c1cccc(NS(=O)(=O)c2ccc(Br)s2)c1 | i
O=C(Nc1ccc(C(=O)N2CCOCC2)cc1)Nc1cccc(C(F)(F)F)c1 | i
Cc1onc(-c2c(Cl)cccc2Cl)c1C(=O)Nc1sc2c(c1C(N)=O)CCCCC2 | i
Cc1ccc(S(=O)(=O)N2CCN(C(=O)c3ccc([N+](=O)[O-])cc3)CC2)c(C)c1 | i
COc1ccc(CCNC(=S)Nc2ccc(Oc3ccccc3)cc2)cc1OC | i
Cc1ccc(N(Cc2ccccc2O)C(=O)c2ccccc2F)cc1 | i
CCOc1ccc(NC(=O)CN(Cc2ccccc2)S(=O)(=O)c2cc(Cl)ccc2Cl)cc1 | i
CC(=O)c1cccc(NS(=O)(=O)c2ccc(Oc3ccccc3)cc2)c1 | i
Cc1cccc2sc(NC(=O)c3ccc(Cl)cc3)nc12 | i
C=CCNC(=S)Nc1ccc(Cl)c(Cl)c1 | 12.5%
CCOC(=O)c1sc(NC(=S)N2CCc3ccccc3C2)c(C(=O)OCC)c1C | i
C=CCNC(=O)c1ccc(Cl)c(S(=O)(=O)Nc2ccc(C)cc2C)c1 | i
COc1ccc(NC(=O)C2CCN(C(=O)c3ccc(Br)cc3)CC2)cc1Cl | i
